Screens: PubChem BioAssay, Broad Institute
Ecoli rRNA inh: reduced GFP signal of wild-type E. coli, primary screen, bacterial rRNA inhibitor project, GFP/RFP fluorescence, OD600, single point. E. coli WT GFP vs humanized-ribosome RFP mutants, 24 h; active compounds read low; DMSO median 0, no signal -100. GFP signal change (wild-type ribosome), % (no concentration beside the values). actives 1.6% (n = 350,000). AID 720706, 2013;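 active = significant combined selectivity score with lowered wild-type GFP, culture density cut under 30%, mutant RFP and density less affected; inactive = any of these conditions unmet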; note: one replicate is shown; some compounds called inactive have numbers as strong as hits
Ecoli rRNA inh OD600: recorded beside Ecoli rRNA inh, whose call it bears; OD600 change, %; measured here: OD600 growth;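 optical density of the mix in the first replicate; 0 = DMSO median and -100 = no signal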
Ecoli rRNA inh RFP: recorded beside Ecoli rRNA inh, whose call it bears; RFP signal change, %; measured here: RFP humanized mutant strains;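 first replicate; 0 = DMSO median and -100 = no signal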
* marks the source's active call; other numbers are inactive results; & = joins results of further samples. These rows are one share of the data; count on the stated rates, not on these rows.

Ecoli rRNA inh | Ecoli rRNA inh OD600 | Ecoli rRNA inh RFP | SMILES
-13 | -3 | 12 | O=C(Nc1ccc2c(c1)OCCO2)C1c2ccccc2OCC(=O)N1CCc1c[nH]c2ccccc12 (stereo unspecified)
1 | 8 | -3.8 | CCC(=O)N(C)C[C@@H]1Oc2ncc(-c3ccc(C#N)cc3)cc2C(=O)N([C@H](C)CO)C[C@@H]1C
-22 | -5 | 12 | COCCNC(=O)c1cc2c(c(-c3cccc(C#Cc4ccc(OC)c(OC)c4)c3)n1)[C@H](CCO)N(S(=O)C(C)(C)C)C2 (stereo partly specified)
-3 | -9 | 0.8 | C[C@H]1CN([C@@H](C)CO)C(=O)c2cc(NC(=O)NC3CCCCC3)ccc2O[C@H]1CN(C)S(=O)(=O)c1cccs1
0 | -5 | -2.8 | C[C@@H]1CCCCO[C@H](CN(C)S(=O)(=O)c2ccc(Cl)cc2)[C@@H](C)CN([C@H](C)CO)C(=O)c2cc(NC(=O)c3ccncc3)ccc2O1
-1 | 6 | -0.8 | CC(=O)Nc1ccc2c(c1)C(=O)N(C)C[C@@H](C)[C@@H](CN(C)C(=O)NC(C)C)O2
3 | 0 | -2.6 | O=C(C[C@H]1CC[C@@H]2[C@H](COC[C@@H](O)CN2Cc2nccs2)O1)NCc1ccc(F)cc1
2 | 11 | -3.0 | O=C([C@@H]1[C@@H](CO)[C@@H]2Cn3c(cccc3=O)[C@H]1N2Cc1cccc(Cl)c1)N1CCCCC1
-6 | -4 | -0.3 | C[C@@H]1CN([C@@H](C)CO)C(=O)c2cccc(NC(=O)Nc3ccccc3)c2O[C@@H]1CN(C)C(=O)NC1CCCCC1
2 | -2 | -0.6 | COc1ccc(CN(C)C[C@H]2Oc3ccc(NS(=O)(=O)c4c(C)noc4C)cc3C(=O)N([C@H](C)CO)C[C@H]2C)cc1
-54 | -64 | -5.7 | C[C@@H]1CCCCO[C@H](CN(C)Cc2ccc3c(c2)OCO3)[C@@H](C)CN([C@@H](C)CO)C(=O)c2cc(NC(=O)Nc3ccc(F)cc3)ccc2O1
-58 | -79 | -13 | OC[C@@H]1[C@H](c2ccc(C#CC3CCCC3)cc2)[C@H]2CN(CCC(F)(F)F)CCCCN12
3 | 14 | -2.3 | CN(C)C(=O)c1cccc(-c2ccccc2[C@@H]2[C@@H](CO)N(C(=O)C3CC3)[C@H]2C#N)c1
0 | -3 | 2.9 | COc1cccc(S(=O)(=O)Nc2ccc3c(c2)C(=O)N(C)C[C@@H](OC)[C@@H](C)CN(C(=O)Cc2cccnc2)[C@@H](C)CO3)c1
2 | 8 | -2.7 | C[C@@H]1CN([C@H](C)CO)C(=O)c2cc(C3=CCCCC3)cnc2O[C@@H]1CN(C)C(=O)C1CCOCC1
5 | 3 | -1.6 | C[C@@H]1CCCCO[C@@H](CN(C)C(=O)Nc2ccc3c(c2)OCO3)[C@@H](C)CN([C@@H](C)CO)C(=O)c2cc(NC(=O)c3ccccc3)ccc2O1
-1 | 3 | -0.7 | CNC[C@@H]1Oc2ccc(NC(=O)Nc3ccc4c(c3)OCO4)cc2C(=O)N([C@@H](C)CO)C[C@H]1C
3 | 1 | -1.9 | CO[C@H]1CN(C)C(=O)c2cc(NC(=O)C3CC3)ccc2OC[C@@H](C)N(C(C)=O)C[C@H]1C
1 | -9 | -4.5 | COc1ccc(-c2ccc([C@H]3[C@H](CO)N4C(=O)CN(C(=O)C5CCC5)C[C@@H]34)cc2)cc1
-5 | 1 | 1.2 | O=C(C[C@H]1CC[C@H]2[C@@H](COC[C@H](O)CN2Cc2ccccc2F)O1)NCc1ccccc1F
4&23 | 8&14 | -0.7&5.7 | C[C@@H]1CN([C@@H](C)CO)C(=O)CCCn2cc(nn2)CO[C@H]1CN(C)C(=O)c1ccccc1
9 | 8 | 0.8 | C[C@@H]1CN([C@H](C)CO)C(=O)c2cc(C#Cc3ccncc3)cnc2O[C@@H]1CN(C)CC1CCCC1
-3 | 3 | -0.8 | O=C(NCC1CCCCC1)[C@@H]1[C@@H](CO)[C@@H]2Cn3c(ccc(-c4ccccc4)c3=O)[C@H]1N2
1 | -7 | 0.4 | CCC(=O)Nc1ccc2c(c1)C(=O)N(C)C[C@@H](OC)[C@@H](C)CN(Cc1ccccc1)[C@H](C)CO2
-17 | -15 | -4.1 | CC(=O)c1ccc2c(c1)N(Cc1ccccc1)C(=O)C(C)S2 (stereo unspecified)
-7 | -16 | 1.2 | COc1ccc(-c2coc3c(C(=O)Nc4cccc(NS(C)(=O)=O)c4)cccc23)c(C)c1
8 | 17 | -2.4 | O=C(Nc1ccc(F)c(Cl)c1)[C@@H]1O[C@H](CO)[C@H](O)[C@H](O)[C@H]1O
-4 | -1 | 19 | CO[C@@H]1CN(C)C(=O)c2cc(NC(=O)NC3CCCCC3)ccc2OC[C@H](C)N(CCc2ccccc2)C[C@H]1C
-58 | -74 | -14 | O=S(=O)(c1ccc(F)cc1)N1CCCCN2[C@H](CO)[C@H](c3ccc(C4=CCCCC4)cc3)[C@H]2C1
5&2 | 2&-1 | 2.8&-0.6 | Cc1ccccc1-c1ccc(C2[C@H]3CNC[C@@H]2N3Cc2ccccn2)cc1 (stereo partly specified)
-1 | -1 | 1.7 | Cc1ccc(S(=O)(=O)N(C)C[C@H]2Oc3ccc(NC(=O)NC4CCCCC4)cc3CC(=O)N([C@H](C)CO)C[C@@H]2C)cc1
3 | 10 | 0.6 | C[C@@H]1CN([C@@H](C)CO)C(=O)c2cccc(NC(=O)c3cnccn3)c2O[C@@H]1CN(C)S(=O)(=O)c1cccs1
-42 | -55 | 1.0 | CC(C)CC#Cc1ccc([C@@H]2[C@H]3CN(C(=O)c4ccc5c(c4)OCO5)CCCCN3[C@H]2CO)cc1
2 | -4 | 1.2 | CNC[C@H]1Oc2cc(-c3cccnc3)ccc2S(=O)(=O)N([C@@H](C)CO)C[C@@H]1C
10 | 11 | 3.1 | CC(=O)c1ccc(-c2cnc3c(NC=O)cc(-c4cnn(C)c4)cn23)cc1
2 | 2 | -1.1 | CC(C)NC(=O)N[C@H]1C=C[C@H](CC(=O)NCCN2CCCC2)O[C@@H]1CO
3 | 3 | -0.5 | C[C@H](CO)N1C[C@H](C)[C@@H](CN(C)C(=O)CCC(F)(F)F)OCCCC[C@H](C)Oc2ccc(NC(=O)CCCN(C)C)cc2C1=O
1 | 2 | 0.7 | CCCN(C)C[C@H]1Oc2ncc(C#CCC(C)C)cc2C(=O)N([C@@H](C)CO)C[C@H]1C
8 | 6 | 1.1 | Cc1cn([C@H]2C[C@H](O)[C@@H](CNC(=O)c3ccccn3)O2)c(=O)[nH]c1=O
-1 | 0 | 0.1 | COCC(=O)Nc1ccc2c(c1)OC[C@@H](C)N(C(=O)c1ccccc1F)C[C@H](C)[C@H](OC)CN(C)C2=O
4 | 4 | 1.4 | Cc1ccc(S(=O)(=O)Nc2ccc3c(c2)C(=O)N([C@@H](C)CO)C[C@H](C)[C@H](CN(C)Cc2ccc(Cl)c(Cl)c2)O3)cc1
0 | -3 | -0.3 | COc1ccc(CN(C)C[C@@H]2OCCCC[C@H](C)Oc3ccc(NS(=O)(=O)c4ccccc4)cc3C(=O)N([C@H](C)CO)C[C@@H]2C)cc1
-8 | -7 | 3.6 | CSCCC(C(=O)NC(C)(C)C)n1c(-c2ccccc2)nc2ccccc21 (stereo unspecified)
-46 | -77 | -18 | COC(=O)C1=C(C)N(Cc2cccc(C(F)(F)F)c2)C(=NCC2CC2)NC1c1ccccc1C(F)(F)F (stereo unspecified)
2 | -3 | 3.1 | CCC(=O)NC[C@H]1[C@@H](c2ccccc2)[C@H](CO)N1C(=O)C1CCC1
7 | 6 | -3.4 | COc1ccc2c3c(n(C)c2c1)[C@H](CO)N(CC1CCCCC1)CC31CN(C(C)=O)C1
7 | 7 | 1.7 | C[C@H](CO)N1C[C@H](C)[C@H](CN(C)S(=O)(=O)c2ccccc2)Oc2ncc(C#CCN(C)C)cc2C1=O
-3 | -1 | -1.1 | Cc1ccc(S(=O)(=O)Nc2ccc3c(c2)C(=O)N([C@@H](C)CO)C[C@@H](C)[C@H](CN(C)S(=O)(=O)c2cccs2)OCCCC[C@@H](C)O3)cc1
5 | 12 | -0.6 | COc1ccc(C(=O)Nc2nc(C)cs2)cc1S(=O)(=O)N1CCOCC1
-2 | -26 | 1.7 | CNC[C@@H]1Oc2cc(C#CCC3CCCC3)ccc2S(=O)(=O)N([C@H](C)CO)C[C@H]1C

Further entries
Ecoli rRNA inh | Ecoli rRNA inh OD600 | Ecoli rRNA inh RFP | SMILES
-3 | -24 | 6.9 | CN1c2ccc(-c3cccc(C#N)c3)cc2[C@H]2[C@H](CCN2C(=O)NC2CCCCC2)[C@@H]1CO
-2 | 1 | -3.2 | N#C[C@H]1[C@@H](c2ccccc2)[C@H](CO)N1S(=O)(=O)Cc1ccccc1
0 | -1 | 1.2 | Cc1cc(C)cc(NC(=O)Nc2ccc3c(c2)C(=O)N(C)[C@H]2CC[C@H](CC(=O)O)O[C@H]2CO3)c1
-1 | 8 | 1.8 | CCCC#Cc1cnc2c(c1)C(=O)N([C@@H](C)CO)C[C@H](C)[C@H](CN(C)C(=O)NC1CCCC1)O2
2 | 13 | -0.4 | CCCNC(=O)N1C[C@H](O)COC[C@H]2O[C@@H](CC(=O)N3CCN(C)CC3)CC[C@@H]21
-4 | 4 | -1.3 | C[C@H]1CN([C@@H](C)CO)S(=O)(=O)c2ccc(-c3cccc(C(=O)N(C)C)c3)cc2O[C@H]1CN(C)C(=O)Cc1ccccn1
-1 | -7 | -0.3 | C[C@@H]1CN([C@H](C)CO)C(=O)c2cc(NC(=O)Cc3ccccc3)ccc2O[C@@H](C)CCCCO[C@H]1CN(C)S(C)(=O)=O
-30 | -55 | 1.1 | COc1ccc(NC(=O)c2ccc(-c3ccc(F)cc3)o2)cc1OC
2 | -14 | -3.3 | COc1cccc(-c2ccc3c(c2)O[C@@H](CN(C)C)[C@H](C)CN([C@@H](C)CO)S3(=O)=O)c1
-6 | -7 | 8.3 | C[C@H](CO)N1C[C@H](C)[C@H](CN(C)Cc2ccncc2)Oc2ncc(-c3cc4ccccc4o3)cc2C1=O
3 | -1 | -2.6 | CN(C)Cc1cn(CC[C@@H]2CC[C@H](NC(=O)Nc3ccccc3F)[C@@H](CO)O2)nn1
4 | 8 | 0.1 | C[C@H](CO)N1C[C@H](C)[C@H](CN(C)S(=O)(=O)c2cn(C)cn2)Oc2c(NC(=O)Nc3ccc(F)cc3)cccc2C1=O
4 | 5 | 3.8 | Cc1ccc([C@H]2C[C@@H](O)[C@H](n3cc(-c4ccc(F)cc4)nn3)CN2Cc2cccs2)cc1
-30 | -37 | 2.4 | O=C(CNc1ccc(C(F)(F)F)cc1)Nc1cccc(S(=O)(=O)N2CCCCC2)c1
-4 | 9 | 0.7 | CO[C@H]1CN(C)C(=O)c2ccc(NC(=O)C3CC3)cc2OC[C@@H](C)N(Cc2nccs2)C[C@H]1C
-11 | -36 | -2.1 | Cc1cccc(C(=O)C(O)(c2ccccc2)C2CCCCC2=O)c1 (stereo unspecified)
5 | 7 | -1.6 | CCCC#Cc1cnc2c(c1)C(=O)N([C@H](C)CO)C[C@@H](C)[C@@H](CN(C)C(=O)Nc1ccccc1OC)O2
2 | 3 | -1.6 | COCC#Cc1cnc2c(c1)C(=O)N([C@H](C)CO)C[C@@H](C)[C@@H](CN(C)C(=O)Nc1cccc(F)c1)O2
0 | 0 | -1.7 | COCCNC(=O)C[C@@H]1CC[C@H]2[C@@H](COC[C@@H](O)CN2C(=O)Nc2ccccc2OC)O1
2 | 1 | -1.6 | CC=Cc1ccc2n(c1=O)C[C@@H]1[C@@H](CO)[C@H](C(=O)NCC3CCCCC3)[C@H]2N1C(C)=O (mixture of isomers)

Some values from the list:
Entry of CO[C@H]1CN(C)C(=O)c2ccc(NC(=O)C3CC3)cc2OC[C@@H](C)N(Cc2nccs2)C[C@H]1C under Ecoli rRNA inh RFP: 0.7
Entry of C[C@H](CO)N1C[C@H](C)[C@H](CN(C)S(=O)(=O)c2ccccc2)Oc2ncc(C#CCN(C)C)cc2C1=O under Ecoli rRNA inh: 7

Reformatted comma-delimited: entries from further up
Compound,Ecoli rRNA inh,Ecoli rRNA inh OD600,Ecoli rRNA inh RFP
CCCC#Cc1cnc2c(c1)C(=O)N([C@H](C)CO)C[C@@H](C)[C@@H](CN(C)C(=O)Nc1ccccc1OC)O2,5,7,-1.6
N#C[C@H]1[C@@H](c2ccccc2)[C@H](CO)N1S(=O)(=O)Cc1ccccc1,-2,1,-3.2
CN(C)Cc1cn(CC[C@@H]2CC[C@H](NC(=O)Nc3ccccc3F)[C@@H](CO)O2)nn1,3,-1,-2.6
COCC#Cc1cnc2c(c1)C(=O)N([C@H](C)CO)C[C@@H](C)[C@@H](CN(C)C(=O)Nc1cccc(F)c1)O2,2,3,-1.6
CCCNC(=O)N1C[C@H](O)COC[C@H]2O[C@@H](CC(=O)N3CCN(C)CC3)CC[C@@H]21,2,13,-0.4
C[C@H]1CN([C@@H](C)CO)S(=O)(=O)c2ccc(-c3cccc(C(=O)N(C)C)c3)cc2O[C@H]1CN(C)C(=O)Cc1ccccn1,-4,4,-1.3
